# Vaccinia inh: blocks a specific stage of Vaccinia orthopoxvirus infection, primary screen, cell-based, single point. Vaccinia-infected cells, mCherry/Venus stage reporter fluorescence; hits give low values; some inactives read as strong as hits. activity change (mCherry), % (test concentration not listed). 0.01% of 89,000 active. AID 1053133, 2014;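 active = mCherry past -33% and 40 or more points under the early reporter, replicates agreeing; inconclusive = past -33% without that gap or agreement; tested in A549 cells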;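 note: scaled between vehicle wells and reference inhibitor wells; 23 nL library stock went into each well; one replicate is shown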
# Vaccinia inh Venus: further read-out of Vaccinia inh, marked with its call; activity change (Venus), %; measured here: Venus reporter, other viral stage;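 negative = less Venus signal; first of two replicates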
# * hit, by the source's call; ? = inconclusive; · = no result given. These rows are one share of the data; the hit share may differ from the screen's.
entry	Molecule	Vaccinia inh	Vaccinia inh Venus
1	CC=Cc1ccc2n(c1=O)C[C@@H]1[C@@H](CO)[C@H](C(=O)NCCC)N(CC3CCCC3)[C@H]21 (mixture of isomers)	-7	-3
2	CO[C@H]1CN(C)C(=O)c2ccc(NC(=O)c3ccccc3F)cc2OC[C@@H](C)NC[C@H]1C	0	-2
3	C[C@@H]1CCCCO[C@@H](CN(C)Cc2ccc(Cl)c(Cl)c2)[C@@H](C)CN([C@@H](C)CO)C(=O)c2cc(NC(=O)CCC(F)(F)F)ccc2O1	?	·
4	O=C(NCC[C@H]1CC[C@H](NS(=O)(=O)c2cccc(F)c2)[C@H](CO)O1)Nc1cc(F)ccc1F	-15	-8
5	C/C=C/c1cnc2c(c1)C(=O)N([C@H](C)CO)C[C@H](C)[C@H](CN(C)C(=O)C1CCCCC1)O2	12	7
6	O=C(C[C@H]1CC[C@H](NC(=O)c2cccc(F)c2)[C@H](CO)O1)NCCN1CCCC1	-7	-1
7	CC(=O)NC[C@H]1[C@@H](c2ccc(-c3cccnc3)cc2)[C@@H](CO)N1C(=O)CC1CC1	-12	3
8	C[C@@H]1CN([C@H](C)CO)C(=O)CCCn2cc(nn2)CO[C@@H]1CN(C)C(=O)Oc1ccccc1	12	14
9	C[C@H](CO)N1C[C@H](C)[C@H](CN(C)S(=O)(=O)c2cccs2)Oc2ccc(NC(=O)Nc3ccc(F)cc3)cc2C1=O	-9	-17
10	COc1ccc(NC(=O)Nc2ccc3c(c2)C(=O)N([C@@H](C)CO)C[C@H](C)[C@@H](CN(C)C(=O)Nc2ccccc2)OCCCC[C@H](C)O3)cc1	-10	-4
11	C=CCN1C(=O)[C@@]2(O[C@@H](CCn3cc(CCO)nn3)[C@H]([Si](C)(C)c3ccc(OC)cc3)[C@H]2C)c2cc(NC(=O)c3ccc(OC)cc3)ccc21	?	·
12	C[C@@H]1CCCCO[C@@H](CN(C)Cc2ccncc2)[C@H](C)CN([C@H](C)CO)C(=O)c2cc(NC(=O)CCC(F)(F)F)ccc2O1	1	2
13	O=C(N[C@H]1CC[C@@H](CCn2cc(C3(O)CCCC3)nn2)O[C@@H]1CO)C1CCOCC1	-5	1
14	O=C(Nc1ccc2c(c1)[C@H]1C[C@H](CC(=O)N3CCc4ccccc4C3)O[C@H](CO)[C@H]1O2)NC1CCCC1	1	3
15	C[C@@H]1CCCCO[C@H](CN(C)C(=O)Nc2ccc(C(F)(F)F)cc2)[C@@H](C)CN([C@H](C)CO)C(=O)c2cc(NC(=O)Cc3ccccc3)ccc2O1	-10	-4
16	CCC(=O)N1[C@H](CO)[C@H]2c3ccccc3N(S(=O)(=O)c3ccccc3C)C[C@H]21	-7	-7
17	C[C@@H]1CCCCO[C@@H](CN(C)C(=O)c2ccncc2)[C@H](C)CN([C@@H](C)CO)C(=O)c2cc(NS(C)(=O)=O)ccc2O1	16	9
18	C[C@H]1CN([C@@H](C)CO)C(=O)Cc2cc(NC(=O)c3ccncc3)ccc2O[C@@H]1CN(C)S(=O)(=O)c1cccs1	21	15
19	O=C(C[C@@H]1CC[C@H]2[C@@H](COC[C@@H](O)CN2CC2CC2)O1)NCc1ccc(Cl)cc1	0	7
20	COc1ccc(NC(=O)Nc2ccc3c(c2)C(=O)N([C@H](C)CO)C[C@@H](C)[C@@H](CN(C)C(=O)Nc2c(C)noc2C)O3)cc1	13	9
21	COc1cccc(-c2cnc3c(c2)C(=O)N([C@@H](C)CO)C[C@H](C)[C@@H](CN(C)CC2CCCC2)O3)c1	-15	-14
22	COc1ccc(S(=O)(=O)N[C@H]2CC[C@H](CC(=O)NCCc3ccccc3)O[C@@H]2CO)cc1	2	-6
23	CCCC#Cc1cnc2c(c1)C(=O)N([C@H](C)CO)C[C@H](C)[C@@H](CN(C)C(=O)C1CCOCC1)O2	10	0
24	COc1ccccc1-c1ccc2c(c1)O[C@@H](CN(C)Cc1ccc3c(c1)OCO3)[C@@H](C)CN([C@@H](C)CO)S2(=O)=O	?	·
25	Cc1ccc(S(=O)(=O)Nc2cccc3c2O[C@H](CN(C)Cc2ccc(Oc4ccccc4)cc2)[C@@H](C)CN([C@H](C)CO)C3=O)cc1	?	·

# Additional results follow.
entry	Molecule	Vaccinia inh	Vaccinia inh Venus
26	C[C@@H]1CCCCO[C@@H](CN(C)C(=O)c2ccccc2)[C@H](C)CN([C@H](C)CO)C(=O)c2cc(NC(=O)Nc3cccc4ccccc34)ccc2O1	5	12
27	COc1ccc(S(=O)(=O)Nc2ccc3c(c2)C(=O)N([C@@H](C)CO)C[C@H](C)[C@H](CN(C)S(=O)(=O)c2ccc(C)cc2)O3)cc1	-13	-12
28	Cc1ccc(S(=O)(=O)N[C@H]2CC[C@@H](CCn3cc(C4CCCCC4)nn3)O[C@@H]2CO)cc1	-25	-14
29	O=C(C[C@H]1CC[C@H]2[C@@H](COC[C@@H](O)CN2C(=O)c2ccccc2)O1)Nc1nccs1	15	10
30	COCc1cn(CC[C@H]2CC[C@@H](NC(=O)c3ccccc3)[C@@H](CO)O2)nn1	10	4
31	O=C(C[C@@H]1C[C@@H]2c3cc(NC(=O)C4CCC4)ccc3O[C@@H]2[C@@H](CO)O1)NCc1ccccn1	7	5
32	O=C(NC1CCCC1)[C@H]1[C@H](CO)[C@H]2Cn3c(ccc(-c4ccc(F)cc4)c3=O)[C@@H]1N2Cc1cocn1	8	1
33	COCCOC(=O)N1C(=O)[C@@]2(c3cc(C#CC4(O)CCCCCC4)ccc31)[C@H](c1ccc(OCCO)cc1)N1[C@H](c3ccccc3)[C@H](c3ccccc3)OC(=O)[C@H]1[C@@H]2C(N)=O	-19	-15
34	O=C(C[C@@H]1C=C[C@H](NS(=O)(=O)c2cccc(F)c2)[C@H](CO)O1)NCc1ccc2c(c1)OCO2	1	5
35	C[C@H]1CCCCO[C@H](CN(C)C(=O)C2CCCCC2)[C@@H](C)CN([C@@H](C)CO)C(=O)c2cc(NS(=O)(=O)c3ccc(Cl)cc3)ccc2O1	?	·
36	COCC#Cc1ccc2c(c1)O[C@@H](CN(C)C(=O)CN(C)C)[C@@H](C)CN([C@@H](C)CO)S2(=O)=O	6	3
37	C[C@H]1CN([C@@H](C)CO)C(=O)c2cc(-c3cccc(C#N)c3)cnc2O[C@H]1CN(C)Cc1ccccc1	-4	7
38	N#C[C@@H]1[C@H](c2ccccc2C2=CCCC2)[C@@H](CO)N1C(=O)NC1CCCCC1	-7	8
39	CCCNC(=O)Nc1ccc2c(c1)C(=O)N(C)C[C@H](OC)[C@H](C)CN(Cc1cccnc1)[C@@H](C)CO2	5	3
40	C[C@H](CO)N1C[C@H](C)[C@H](CN(C)C(=O)c2ccncc2)Oc2ncc(C3=CCCC3)cc2C1=O	24	12
41	C[C@@H]1CN([C@@H](C)CO)C(=O)c2cc(NC(=O)Nc3ccc(F)cc3)ccc2O[C@@H](C)CCCCO[C@H]1CN(C)C	6	4
42	CN1C(=O)c2cc(NC(=O)Cc3cccs3)ccc2OC[C@@H]2O[C@H](CC(=O)O)CC[C@@H]21	2	-3
43	C[C@@H]1CN([C@@H](C)CO)C(=O)c2cc(NC(=O)NC3CCCCC3)ccc2O[C@@H]1CN(C)C(=O)Nc1ccc(F)cc1	-5	-6
44	CO[C@@H]1CC[C@@H]2CCOc3c(C#N)cccc3C(=O)N(C)[C@@H](C)C(=O)N(C)C[C@@H]1O2	4	1
45	COCCNC(=O)C[C@@H]1CC[C@@H]2[C@H](COc3ccc(NC(=O)c4cc(C)on4)cc3C(=O)N2C)O1	8	6
46	OC[C@H]1[C@@H](c2ccc(-c3ccccc3F)cc2)[C@@H]2CN(Cc3cccnc3)CCCCN12	-4	-17
47	C[C@@H]1CN([C@@H](C)CO)S(=O)(=O)c2ccc(-c3cccc(C(=O)N(C)C)c3)cc2O[C@H]1CN(C)C(=O)Nc1ccc(F)cc1	29	16
48	C[C@@H]1CN([C@H](C)CO)C(=O)c2cc(C#CC3CCCC3)cnc2O[C@H]1CN(C)S(=O)(=O)c1cccc(F)c1	-24	-19
49	COc1ccc(S(=O)(=O)N(C)C[C@@H]2OCCCC[C@H](C)Oc3ccc(NS(C)(=O)=O)cc3C(=O)N([C@@H](C)CO)C[C@H]2C)cc1	20	4
50	O=C(C[C@@H]1CC[C@@H]2[C@H](COC[C@H](O)CN2Cc2cc(F)ccc2F)O1)N1CCc2ccccc2C1	-29	-23

# Compound profiles, as listed above. Order of screens: Vaccinia inh | Vaccinia inh Venus
# `CN1C(=O)c2cc(NC(=O)Cc3cccs3)ccc2OC[C@@H]2O[C@H](CC(=O)O)CC[C@@H]21` reads 2 | -3
# `COCc1cn(CC[C@H]2CC[C@@H](NC(=O)c3ccccc3)[C@@H](CO)O2)nn1` reads 10 | 4

# Returning to the listing; the five compounds before the break are reprinted first.
entry	Molecule	Vaccinia inh	Vaccinia inh Venus
46	OC[C@H]1[C@@H](c2ccc(-c3ccccc3F)cc2)[C@@H]2CN(Cc3cccnc3)CCCCN12	-4	-17
47	C[C@@H]1CN([C@@H](C)CO)S(=O)(=O)c2ccc(-c3cccc(C(=O)N(C)C)c3)cc2O[C@H]1CN(C)C(=O)Nc1ccc(F)cc1	29	16
48	C[C@@H]1CN([C@H](C)CO)C(=O)c2cc(C#CC3CCCC3)cnc2O[C@H]1CN(C)S(=O)(=O)c1cccc(F)c1	-24	-19
49	COc1ccc(S(=O)(=O)N(C)C[C@@H]2OCCCC[C@H](C)Oc3ccc(NS(C)(=O)=O)cc3C(=O)N([C@@H](C)CO)C[C@H]2C)cc1	20	4
50	O=C(C[C@@H]1CC[C@@H]2[C@H](COC[C@H](O)CN2Cc2cc(F)ccc2F)O1)N1CCc2ccccc2C1	-29	-23
51	COc1cccc(-c2ccc3c(c2)O[C@H](CN(C)C(=O)C2CCOCC2)[C@H](C)CN([C@@H](C)CO)S3(=O)=O)c1	-7	-13
52	CCNC(=O)[C@@H]1[C@@H](CO)[C@@H]2Cn3c(ccc(/C=C/c4ccccc4)c3=O)[C@H]1N2	16	8
53	C[C@H]1CN([C@@H](C)CO)C(=O)c2cc(-c3cccc(C#N)c3)cnc2O[C@H]1CN(C)C(=O)C1CCOCC1	12	12
54	C[C@H](CO)N1C[C@H](C)[C@H](CN(C)C(=O)CC2CC2)Oc2cc(C#CCC3CCCC3)ccc2S1(=O)=O	-35	-30
55	COCC(=O)Nc1ccc2c(c1)OC[C@@H](C)N(C)C[C@@H](C)[C@H](OC)CN(C)C2=O	0	-3
56	C[C@H](CO)N1C[C@H](C)[C@H](CN(C)C(=O)Cc2ccccn2)Oc2cc(-c3cccc(C(=O)N(C)C)c3)ccc2S1(=O)=O	2	-1
57	COc1cccc(S(=O)(=O)N2C[C@@H](O)COC[C@H]3O[C@@H](CC(=O)N4CCN(C)CC4)CC[C@@H]32)c1	23	7
58	C[C@H](CO)N1C[C@H](C)[C@H](CN(C)CC2CCCCC2)OCCCC[C@H](C)Oc2ccc(NS(=O)(=O)c3cn(C)cn3)cc2C1=O	12	4
59	CO[C@@H]1CN(C)C(=O)c2ccc(NC(=O)C3CC3)cc2OC[C@@H](C)N(CC2CCCC2)C[C@@H]1C	2	0
60	C[C@@H]1CCCCO[C@H](CN(C)C(=O)Nc2ccc(F)cc2)[C@@H](C)CN([C@H](C)CO)C(=O)c2cc(NC(=O)c3ccccc3)ccc2O1	-15	-6
61	COc1ccc(NC(=O)Nc2ccc3c(c2)C(=O)N([C@@H](C)CO)C[C@@H](C)[C@H](CN(C)C(=O)NC2CCCCC2)OCCCC[C@@H](C)O3)cc1	-16	-15
62	COc1ccc(C#Cc2ccc3c(c2)O[C@H](CN(C)C(=O)Nc2cccc(OC)c2)[C@@H](C)CN([C@H](C)CO)S3(=O)=O)cc1	-13	-8
63	C[C@@H]1CN([C@H](C)CO)S(=O)(=O)c2ccc(C#Cc3ccccn3)cc2O[C@@H]1CN(C)CC1CC1	6	10
64	CC=Cc1ccc2n(c1=O)C[C@H]1[C@H](CO)[C@@H](C(=O)NCC3CC3)[C@@H]2N1CCC (mixture of isomers)	-8	-8
65	CCC(=O)N(C)C[C@@H]1Oc2ncc(C3=CCCC3)cc2C(=O)N([C@@H](C)CO)C[C@H]1C	22	17
66	CO[C@H]1CN(C)C(=O)c2ccc(NC(=O)C3CC3)cc2OC[C@H](C)N(C(=O)c2ccncc2)C[C@H]1C	1	-1
67	CN1c2ccc(-c3ccc(F)cc3)cc2[C@H]2[C@H](CCN2S(=O)(=O)c2cccc(F)c2)[C@H]1CO	?	·
68	C[C@H](CO)N1C[C@H](C)[C@@H](CN(C)S(=O)(=O)c2ccccc2)Oc2c(cccc2N(C)C)C1=O	6	-2
69	O=C(NC1CCCCC1)N1CC2(C1)[C@@H](c1ccccc1)[C@@H](CO)N2CC1CCCC1	?	·
70	C[C@@H]1CN([C@@H](C)CO)C(=O)Cc2cc(NC(=O)CCN3CCOCC3)ccc2O[C@@H]1CN(C)S(C)(=O)=O	5	3
71	CNC(=O)C[C@@H]1CC[C@@H]2[C@@H](COc3ccc(NC(=O)Nc4ccc(F)c(F)c4)cc3C(=O)N2C)O1	0	-3
72	COc1ccc2c3c(n(C)c2c1)[C@H](CO)N(C(=O)C1CC1)CC31CN(C(=O)CN(C)C)C1	5	3
73	CCNC(=O)C[C@@H]1CC[C@H]2[C@@H](COC[C@H](O)CN2Cc2ccncc2)O1	1	13
74	COc1ccc(NC(=O)N(C)C[C@@H]2Oc3ccc(NC(=O)Nc4ccc(C(F)(F)F)cc4)cc3CC(=O)N([C@H](C)CO)C[C@H]2C)cc1	7	13
75	C[C@H](CO)N1C[C@H](C)[C@@H](CN(C)Cc2ccc(Oc3ccccc3)cc2)Oc2ncc(-c3ccncc3)cc2C1=O	?	·
76	O=C(C[C@H]1C=C[C@H](NC(=O)c2cccc(F)c2)[C@@H](CO)O1)NCCN1CCCC1	5	9
77	CN1C(=O)c2cc(NC(=O)NC3CCCC3)ccc2OC[C@@H]2O[C@H](CC(=O)O)CC[C@@H]21	1	7
78	C[C@@H]1CCCCO[C@@H](CN(C)CC2CCCCC2)[C@@H](C)CN([C@H](C)CO)C(=O)c2cc(NS(=O)(=O)c3ccccc3)ccc2O1	-2	0

# Screens: PubChem, Broad Institute
